Screening data deposited in PubChem by National Center for Advancing Translational Sciences (NCATS).
VDR inh: vitamin D3 receptor (human) inhibition; Potency, µM, inactives show max response, negative = inhibition, hits mostly inhibitors; P11473; VDR-SRC2-3 peptide fluorescence polarization, 2 h; 400,000 tested, 0.93% active; active = well fitted inhibition curve with a large enough effect; inconclusive = small, poorly fitted or top-dose-only effect, or another doubt; inactive = no such curve, though single readings can be large or run the other way; note: series mostly up to about 120 µM
Target sequence (P11473 whole entry, looked up): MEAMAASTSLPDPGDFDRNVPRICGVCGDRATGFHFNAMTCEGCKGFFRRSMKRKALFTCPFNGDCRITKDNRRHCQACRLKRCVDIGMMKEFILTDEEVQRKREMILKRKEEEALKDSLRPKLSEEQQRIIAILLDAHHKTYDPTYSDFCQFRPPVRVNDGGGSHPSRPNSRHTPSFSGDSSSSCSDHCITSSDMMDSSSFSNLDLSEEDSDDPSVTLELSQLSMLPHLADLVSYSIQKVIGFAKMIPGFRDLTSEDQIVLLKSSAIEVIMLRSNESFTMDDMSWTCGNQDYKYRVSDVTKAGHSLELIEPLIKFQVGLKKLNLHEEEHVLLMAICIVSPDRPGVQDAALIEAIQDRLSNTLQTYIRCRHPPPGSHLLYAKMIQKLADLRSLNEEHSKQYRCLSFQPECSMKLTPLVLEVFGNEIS
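After 23 nl compound addition and a short centrifugation, plates sat for 2 hours at ambient temperature; polarization of fluorescence then indicated loss of VDR binding to peptide SRC2-3.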
Numbers without * were called inactive; ? = inconclusive. % is set by controls: 0 for no effect and ±100 for the full control effect; potency is the fitted concentration of half-maximal effect.

SMILES	VDR inh
CCNC(=O)Cn1c(=O)c(=O)n(Cc2ccccc2)c2ccc(Cl)cc21	-12%
C=CCn1c(Oc2ccc(C(=O)OC)cc2)nc2c1c(=O)n(C)c(=O)n2C	11%
COc1cc2c(c(OC)c1CC=C(C)C)C[C@H](c1ccc(O)cc1O)CO2	12%
CC(C)Oc1ccc(C(=O)Nc2cccc3cccnc23)cc1	-7%
CN1CCN(C(=O)c2cc(Br)cn2C)CC1	-25%
Cc1ccc(OCc2ccc(C(=O)Nc3nccs3)o2)cc1C	-2%
O=C(NNC(=O)c1cc(C(F)(F)F)cc(C(F)(F)F)c1)c1ccc(Cl)cc1	-1%
O=C1N(Cc2cccc(Cl)c2)C[C@@H]2C[C@@H](c3ccccn3)N3CCC[C@@]123	-26%
CCN1CCN(C(c2cccs2)C(C)NC(=O)c2ccccc2)CC1 (stereo not drawn)	8%
O=c1oc(/C=C/c2ccco2)nc2sc3c(c12)CCC3	4%
CCOC(=O)CC[C@H](NC(=O)Cn1cc(C)c(=O)[nH]c1=O)C(=O)OCC	1%
COc1ccc(CCNC(=O)C2CCN(S(=O)(=O)c3c(C)noc3/C=C/c3ccc(C)cc3)CC2)cc1OC	6%
CC(C)CNS(=O)(=O)c1ccc(CCC(=O)NC2CCCC2)cc1	-16%
COC(=O)C1=C(C)N(Cc2ccccc2)C(=NCc2cccc(C(F)(F)F)c2)N[C@H]1c1cccc(C(F)(F)F)c1	5%
CC(C)CC1NC(=S)N(C2CCCCC2)C1=O (stereo not drawn)	-24%
COc1ccc(Cc2nc(N)nc(N)n2)cc1	-1%
CC(/C=C/c1ccccc1F)=N\NC(=O)c1cccc(F)c1	0%
COCCCNC(=S)N/N=C/c1ccc(OC)c(Br)c1	-13%
CCCCNC(=O)c1cc(-c2ccc(Cl)c(Cl)c2)on1	-9%
COCCn1ccc2c(OCC(=O)Nc3c(C)cc(C)cc3C)cccc2c1=O	-4%
Cc1csc2ncc(C(=O)N3c4ccccc4CC3C)c(=O)n12 (stereo not drawn)	2%
CCOC(=O)COc1ccccc1C1C(C(=O)OC)=C(C)NC2=C1C(=O)c1ccccc12 (stereo not drawn)	-7%
Nc1ccc(C(=O)N2N=C(c3ccc(F)cc3)CC2(O)C(F)(F)F)cc1 (stereo not drawn)	-11%
CC(=C/c1ccccc1)/C=N/NC(=O)c1ccccn1	2%
O=C(COc1ccc(Br)cc1Cl)Nn1cnnc1	13%
CCN(CC)C(=O)Cn1cc(S(=O)(=O)CC(=O)N2CCOCC2)c2ccccc21	-12%
C/C(=N\NC(=O)Cc1ccc(Cl)cc1)c1ccc(F)cc1	-17%
CC1CN(C(=S)Nc2ccc(Br)cc2)CC(C)O1 (stereo not drawn)	-17%
CCN(CC)S(=O)(=O)c1cc(NC(=O)CSc2nnc(N)s2)ccc1C	-16%
O=C(NCCCN1CCOCC1)[C@@H]1CSC2c3ccccc3C(=O)N21 (stereo partly drawn)	-13%
O=C1CC(c2ccccc2)Cc2nc(NCc3ccco3)ncc21 (stereo not drawn)	-22%
CCCCCCCCCCCCC(=O)CCCCC(=O)O	-13%
CN(C(=O)Cn1cnc2ccccc2c1=O)C1CCS(=O)(=O)C1 (stereo not drawn)	1%
COc1cccc(CN(C(=O)c2ccccc2)C2CCS(=O)(=O)C2)c1 (stereo not drawn)	-12%
O=C1CC(c2ccco2)CC2=C1C1c3ccccc3C(=O)N1c1ccccc1N2 (stereo not drawn)	7%
Cc1cc(C)n(C(=O)/C=C/c2cccs2)n1	-10%
CCCCN(CC)Cc1ccc(CNC(=O)Nc2ccc(Cl)cc2)o1	-3%
O=C(CCCCCN1C(=O)c2ccccc2C1=O)Nc1ccccc1	-6%
Cn1cc(CN2CCC(O)CC2)c(-c2ccc(Oc3ccccc3)cc2)n1	-5%
N#CCOC(=O)C1c2ccccc2Oc2ccccc21	5%
Cc1ccccc1OCC(=O)Nc1sc(C(=O)Nc2cccc(C)c2C)c(C)c1C#N	13%
COc1cccc2c3c(c(C)nc12)CC(CO)O3 (stereo not drawn)	-17%
Cc1cc(C(=O)OCC(=O)N2CC(=O)Nc3ccccc32)c(C)n1-c1ccc(F)cc1	16%
NCCCC[C@@H](C(=O)NCCCCCCCCCCC(=O)N1CCNCC1)n1cc(CCO)nn1	-17%
CC(CO)NCC12CC3CC(CC(C3)C1)C2 (stereo not drawn)	-26%
CN1CCN(S(=O)(=O)c2ccc3c(c2)NC(=O)C2CCCN32)CC1 (stereo not drawn)	11%
Cc1sc2nc(CSc3n[nH]c(N)n3)[nH]c(=O)c2c1C	-9%
CC1CCC2(CC1)NC(=O)N(CC(=O)Nc1cccc(S(=O)(=O)N3CCCC3)c1)C2=O (stereo not drawn)	3%
COC(=O)C(O)(CC(=O)Nc1cccc(SC)c1)C(F)(F)F (stereo not drawn)	-2%
CCS(=O)(=O)N1CCCC(C(=O)N2CCc3ccccc3C2)C1 (stereo not drawn)	-20%
Cc1noc(C)c1CSCC(=O)Nc1nc2c(F)cc(F)cc2s1	-21%
NC1(C(=O)O)CSSC1	-18%
Cc1ccc(S(=O)(=O)Nc2nonc2C)cc1	-3%
CC(c1ccc(F)cc1)n1cc(S(=O)(=O)N2CCCC2)ccc1=O (stereo not drawn)	2%
CCNc1nnc(SCC(=O)N2c3ccccc3NC(=O)CC2C)s1 (stereo not drawn)	-18%
COC(=O)c1c(SCC(=O)NC2CCCCC2)[nH]c2ccccc2c1=O	22%
CCn1c(C)cc(/C=C2/NC(=O)N(Cc3ccccc3F)C2=O)c1C	-7%
Cc1cccc(C)c1NC(=S)N/N=C/c1ccc(C(=O)O)cc1	-2%
Nc1nnc(CC(=O)N/N=C/c2ccc([N+](=O)[O-])cc2)s1	-6%
Cc1ccc2cc3cc(C(=O)NCCCN4CCCC4)oc3nc2c1	?

18 consecutive entries already listed, for reference:
SMILES	VDR inh
N#CCOC(=O)C1c2ccccc2Oc2ccccc21	5%
Cc1ccccc1OCC(=O)Nc1sc(C(=O)Nc2cccc(C)c2C)c(C)c1C#N	13%
COc1cccc2c3c(c(C)nc12)CC(CO)O3 (stereo not drawn)	-17%
Cc1cc(C(=O)OCC(=O)N2CC(=O)Nc3ccccc32)c(C)n1-c1ccc(F)cc1	16%
NCCCC[C@@H](C(=O)NCCCCCCCCCCC(=O)N1CCNCC1)n1cc(CCO)nn1	-17%
CC(CO)NCC12CC3CC(CC(C3)C1)C2 (stereo not drawn)	-26%
CN1CCN(S(=O)(=O)c2ccc3c(c2)NC(=O)C2CCCN32)CC1 (stereo not drawn)	11%
Cc1sc2nc(CSc3n[nH]c(N)n3)[nH]c(=O)c2c1C	-9%
CC1CCC2(CC1)NC(=O)N(CC(=O)Nc1cccc(S(=O)(=O)N3CCCC3)c1)C2=O (stereo not drawn)	3%
COC(=O)C(O)(CC(=O)Nc1cccc(SC)c1)C(F)(F)F (stereo not drawn)	-2%
CCS(=O)(=O)N1CCCC(C(=O)N2CCc3ccccc3C2)C1 (stereo not drawn)	-20%
Cc1noc(C)c1CSCC(=O)Nc1nc2c(F)cc(F)cc2s1	-21%
NC1(C(=O)O)CSSC1	-18%
Cc1ccc(S(=O)(=O)Nc2nonc2C)cc1	-3%
CC(c1ccc(F)cc1)n1cc(S(=O)(=O)N2CCCC2)ccc1=O (stereo not drawn)	2%
CCNc1nnc(SCC(=O)N2c3ccccc3NC(=O)CC2C)s1 (stereo not drawn)	-18%
COC(=O)c1c(SCC(=O)NC2CCCCC2)[nH]c2ccccc2c1=O	22%
CCn1c(C)cc(/C=C2/NC(=O)N(Cc3ccccc3F)C2=O)c1C	-7%

(further entries)
SMILES	VDR inh
CSc1ccc(S(=O)(=O)N2CCC(C(=O)NCCN3CCOCC3)CC2)cc1	1%
CO/N=C(/CS(=O)(=O)c1ccc(C)cc1)c1ccc(OC)cc1	-14%
CCOC(=O)N1CCN(Cc2nc3ccc([N+](=O)[O-])cc3c(=O)n2-c2cccc(OC)c2)CC1	-14%
Cc1noc(C)c1S(=O)(=O)Nc1ccc(C(=O)Nc2ccc(Br)cc2)cc1	-29%
CC(C)(C)c1nnc2sc(SCCN3C(=O)c4ccccc4C3=O)nn2c1=O	-4%
CC1(C)CC(=O)C=C(/C=C/c2ccccc2)C1	-21%
COc1ccc(C)cc1NC(=O)CSc1cccc[n+]1[O-]	-18%
CCOC(=O)c1cccnc1SCC(=O)NC(C)CC (stereo not drawn)	-9%
C#CCOCCOCCOCCNc1nc(N2CCN(C(=O)[C@H]([C@@H](C)CC)n3cc([C@@H](N)CO)nn3)CC2)nc(N2CCN(C(=O)[C@H](CCCCN)n3cc([C@@H](N)CC(C)C)nn3)CC2)n1	-19%
FC(F)(F)c1cccc(Cn2nnnc2-c2cccc(C(F)(F)F)c2)c1	-15%
COc1cccc(C(=O)Nc2ccc3nc(SCCOc4ccccc4)sc3c2)c1	6%
Cc1ccc(C(=O)NNC(=O)OC(C)(C)C)c(Cl)c1	-25%
Cc1occc1-c1nnc(SCC(=O)NCCc2ccccc2)n1C(C)c1ccccc1 (stereo not drawn)	-6%
O=C(NCc1ccccc1)N(Cc1nc2ccccc2c(=O)[nH]1)C1CCCC1	-17%
COc1cc(C(=O)N[C@@H](C)C(=O)N2CCC3(CC2)NCCc2[nH]cnc23)cc(OC)c1OC	-3%
COc1cc(OC)cc(C(=O)NCC2CCCN(C(=O)c3oc(C)cc3C)C2)c1 (stereo not drawn)	-14%
COc1ccc(/C=N/NC(=O)CC(=O)NCc2cccnc2)c(OC)c1	-3%
CCCSc1nc(=O)c2c(n1C)NC(=O)CC2c1cccc(F)c1F (stereo not drawn)	6%
COc1cc(NC(=O)CN(C)S(=O)(=O)c2ccc(-c3ccc(=O)[nH]n3)s2)cc(OC)c1	6%
Cc1cccn2c(/C=N/OCc3cccc(F)c3)c(-c3ccc(Cl)cc3)nc12	18%
CCCCOc1ccc(S(=O)(=O)Nc2ccc(-c3ccc(N4CCCCCC4)nn3)cc2)cc1	12%
Cc1cc(NC(=O)CCC2COc3ccccc3O2)no1 (stereo not drawn)	-12%
COc1ccc(CCN2CC(C(=O)N3CCN(C(C)=O)CC3)CCC2=O)cc1 (stereo not drawn)	7%
Nc1c(C(=O)Nc2ccc(F)cc2)sc2nc(-c3cccs3)cc(C(F)(F)F)c12	5%
CCOC(=O)C1=C(CSc2n[nH]c(N)n2)NC(=O)NC1C (stereo not drawn)	-4%
Cc1ccc(S(=O)(=O)NCC(=O)NCCc2c[nH]c3ccccc23)cc1C	0%
O=C(CCC(=O)N(CC(=O)NC1CCCC1)C1CCCCC1)Nc1ccccn1	-13%
CC(C)NC(=O)Nc1ccc2c(c1)N(C)C(=O)c1ccccc1S2	8%
CC[C@]12c3[nH]c4ccc(OC)cc4c3CCN1C(=O)C(CC(=O)NCC13CC4CC(CC(C4)C1)C3)C[C@@H]2C(=O)N1CCN(C(=O)C2CC2)CC1 (stereo partly drawn)	-6%
O=C(NCc1ccco1)c1ccccc1-c1nc(-c2ccc(F)cc2)no1	10%
CC(C)(O)C#Cc1ccc(C(=O)N2CCN(C(=O)c3ccco3)CC2)cc1	-2%
CCN(CC)S(=O)(=O)c1ccc(N2CCCC2)c(NS(=O)(=O)c2ccc(OC)cc2)c1	-26%
Cc1ccc(S[C@@H](CCN2CC[C@H](NC(=O)OCc3ccccc3)CCC2=O)c2ccccc2)cc1	-1%
COc1ccc(C(=O)N2CCCCCC2)cc1S(=O)(=O)N1CCOCC1	-3%
Cc1ccc(OCC(=O)N2CCN(C(=O)c3ccco3)CC2)cc1	-17%
CCc1ccc(C(=O)c2cn(CC(=O)Nc3ccc4c(c3)OCCO4)c3ccc(CC)cc3c2=O)cc1	-10%
COc1ccccc1NC(=O)c1c(C)cc(C)nc1SCC(=O)Nc1ccc(C)cc1	6%
CCOC(=O)C1=CN(Cc2cccc(-c3cccnc3)c2)S(=O)(=O)N(C)C1C (stereo not drawn)	-6%
CC(=O)N1CCC[C@@]2(CCN(C(=O)Nc3ccccc3)C2)C1	-2%
Cc1ccc(C)c(S(=O)(=O)N2CCN(C(=O)CN3C(=O)C4CC=CCC4C3=O)CC2)c1 (stereo not drawn)	-14%
CC(NC(=O)c1ccc(N2CCCC2)c([N+](=O)[O-])c1)c1ccc(S(N)(=O)=O)cc1 (stereo not drawn)	-16%
COC(=O)c1ccccc1NC(=O)C(CCS(C)(=O)=O)NC(C)=O (stereo not drawn)	6%
COc1ccc(CNCC2COc3ccccc3O2)cc1 (stereo not drawn)	5%
O=C(Cn1nnc2sc(-c3ccccc3)cc2c1=O)Nc1cccc(C(F)(F)F)c1	15%
Nc1cc(=O)[nH]c(=O)n1-c1cccc(F)c1	3%
C/C(N)=C(/C#N)C(=O)CSc1nc2cc(Cl)ccc2s1	-9%
Cc1ccc(CN2CC(C(=O)N3CCN(S(=O)(=O)c4c(F)cccc4F)CC3)CC2=O)cc1 (stereo not drawn)	24%
CSc1nsc(SCC(=O)NCc2ccc(C)cc2)n1	-10%
Cn1cnc(S(=O)(=O)N2CCCC(C(=O)Nc3ccc(OC(F)(F)F)cc3)C2)c1 (stereo not drawn)	-5%
COc1ccc(NCC(=O)Nc2cccc(S(=O)(=O)N3CCCC3)c2)cc1Cl	-5%
O=C(COC(=O)c1ccc(S(=O)(=O)NCc2ccco2)cc1)c1ccccc1	-6%
N/C(=N\OC(=O)c1cccc(Br)c1)c1ccncc1	-9%
CCc1cccc(C)c1NC(=O)Cn1cnc2c1c(=O)n(C)c(=O)n2C	-2%
COc1cc(C2c3c(oc4cc(C)c(C)cc4c3=O)C(=O)N2c2cc(C)ccn2)ccc1O (stereo not drawn)	6%
NC(=O)C1=CN(C2OC(COP(=O)(O)OP(=O)(O)OC[C@H]3O[C@@H](n4cnc5c(N)ncnc54)[C@H](OP(=O)(O)O)[C@@H]3O)C(O)C2O)C=CC1 (stereo partly drawn)	8%
CCOC(=O)c1c(C)[nH]c(C)c1S(=O)(=O)N(C)CC(=O)Nc1cccc(C)n1	13%
CCc1ccc(NC(=O)C(=O)NNC(=O)COc2cccc(OC)c2)cc1	-13%

Only part of the results is shown, so the mix of outcomes need not match the whole.
